MITF inh: MITF inhibition; TRPM1 promoter luciferase, luminescence, 24 h; inhibition, % (test concentration not listed); actives 0.28% (n = 37,000); AID 2240;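 active = most replicates at 85% or more, or half of them and the mean; inconclusive = half reach 85% but not the mean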;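 note: human melanocyte line stably carrying TRPM1 promoter luciferase reporter; 0% = vehicle wells and 100% = a positive control; the first replicate is given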
PD-1 reversal: activators reversing PD-1 mediated T-cell inhibition. AID 2316. 29,000 tested, under 10 active. primary human CD4 T cells, PD-L1 beads, CellTiter-Glo 96 h. activation, % (concentration not given with the values);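 active = replicate mean of 50% or more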;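 note: 0% = median vehicle wells and 100% = positive control; 100 nL library stock added to about 50 µL; numbers are from one replicate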
YB-1 expression: YB-1 expression inhibition | U2OS, qRT-PCR YB-1 vs CDIP delta delta Cp, 16 h; stronger effect = higher value; zero = DMSO, each unit about twofold | delta delta Cp (YB-1 minus CDIP) (concentration not given with the values) | actives 0.37% (n = 30,000) | AID 434959;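 active = delta delta Cp rounded down to an integer at or above 3, about 3 SD of DMSO wells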;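 note: higher means less YB-1 transcript or more CDIP transcript relative to DMSO; stock transfer was 100 nL into about 100 µL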
Shh pathway inh: blocks Sonic Hedgehog signaling | Shh-LIGHT2 Gli-luciferase reporter, 30 h | inhibition, % (concentration not given with the values) | actives 2.1% (n = 22,000);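 active = replicate mean of 65% or more; inconclusive = mean lower but half the replicates past it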;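 note: pathway switched on by Shh-conditioned medium diluted 1 in 25 in low serum; 100 nL library stock added to about 40 µL; 0% = median of neutral wells and 100% = positive control level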
Numbers without * were called inactive; ? = inconclusive; / = not tested or not shown.

SMILES	MITF inh	PD-1 reversal	YB-1 expression	Shh pathway inh
CC(=O)O[C@@H]1[C@@H](O)[C@H](C)O[C@@H](Oc2c(-c3ccc(O)cc3)oc3cc(O[C@@H]4O[C@@H](C)[C@H](O)[C@@H](O)[C@H]4O)cc(O)c3c2=O)[C@@H]1O	4	0.9	-0.68	-17
COc1ccc(-n2c(CC#N)nnc2SCc2c(C)c(C)c(C)c(C)c2C)cc1	11	-0.2	-0.43	19
OCCN1CCN(CC(O)COc2ccc3c(c2)CCC3)CC1 (stereo not drawn)	-10	0.8	/	/
C[C@@H]1CN([C@H](C)CO)C(=O)Cc2cc(NC(=O)CCN3CCOCC3)ccc2O[C@H]1CN(C)S(=O)(=O)c1cccs1	-6	1.5	-0.19	-28
C[C@@H]1CN([C@@H](C)CO)C(=O)c2cc(NC(=O)Cc3ccccc3)ccc2O[C@@H]1CN(C)CC1CC1	-1	0.7	0.18	20
C[C@@H]1CN([C@H](C)CO)C(=O)Cc2cc(NC(=O)CCN3CCOCC3)ccc2O[C@@H]1CN(C)S(=O)(=O)c1cccs1	3	2.0	0.31	25
COc1ccc(NC(=O)N(C)C[C@H]2Oc3ccc(NC(=O)C4CCCCC4)cc3C(=O)N([C@H](C)CO)C[C@@H]2C)cc1	2	/	0.054	-19
CCN(CC)CCOCCOC(=O)C1(c2ccccc2)CCCC1	0	/	-0.043	-1
O=C(NC(=S)N1CCCCC1)c1ccccc1	-4	1.0	-0.22	-17
O=C(CN1CCCC1)Nc1sc2c(c1C(=O)Nc1ccc(Br)cc1)CCC2	17	-5.0	/	/
COc1ccc(-c2coc3c(O)c(OC)ccc3c2=O)cc1	46	/	-0.16	-66
Cc1noc(C)c1NC(=O)Nc1ccc2c(c1)C(=O)N([C@@H](C)CO)C[C@@H](C)[C@@H](CN(C)Cc1ccc(Cl)c(Cl)c1)O2	-2	0.3	-0.023	-3
c1ccc(-c2nnc(OCc3cccnc3)c3ccccc23)cc1	-4	-5.0	/	/
CC(=O)c1c(C)nn(CC(O)COc2ccc3c(c2)CCC3)c1C (stereo not drawn)	28	-2.3	/	/
COc1ccc(NC(=O)N(C)C[C@@H]2Oc3ccc(NC(=O)CCC(F)(F)F)cc3C(=O)N([C@@H](C)CO)C[C@@H]2C)cc1	7	2.0	-0.17	/
C[C@@H]1CCCCO[C@@H](CN(C)S(C)(=O)=O)[C@@H](C)CN([C@H](C)CO)C(=O)c2cc(NS(C)(=O)=O)ccc2O1	-1	/	-0.36	-19
Cc1ccc(S(=O)(=O)Nc2ccc3c(c2)C(=O)N([C@H](C)CO)C[C@@H](C)[C@@H](CN(C)C(=O)Nc2ccccc2)O3)cc1	9	-1.6	-0.3	-12
Cc1nc(-c2c(C(F)(F)F)oc3cc(O)ccc3c2=O)cs1	1	-0.4	-0.45	-7
C[C@@H]1CN([C@H](C)CO)C(=O)c2cccc(NC(=O)c3ccc(-c4nccs4)cc3)c2O[C@H]1CN(C)Cc1ccc(Cl)c(Cl)c1	48	-4.1	-0.34	26
O=C(CSc1nnc(-c2ccncc2)n1-c1ccccc1)Nc1ccc(C(=O)O)cc1	-16	-1.6	/	/
C[C@@H]1CCCCO[C@H](CN(C)S(C)(=O)=O)[C@@H](C)CN([C@H](C)CO)C(=O)c2cc(NC(=O)Nc3ccc(C(F)(F)F)cc3)ccc2O1	-16	-1.6	0.51	-13
CC(=O)SC1CC(=O)N(c2ccc(C(C)(C)C)cc2)C1=O (stereo not drawn)	-2	-5.1	-0.1	-2
COC(=O)c1c(C)nc(C)c2c(=O)oc3ccccc3c12	-27	-0.2	0.05	-37
C[C@@H]1CN([C@@H](C)CO)C(=O)Cc2cc(NC(=O)CCC(F)(F)F)ccc2O[C@@H]1CN(C)S(=O)(=O)c1cccs1	-4	-0.5	0.67	0
O=C(NCCO)c1ccc(N2C(=O)c3ccccc3C2=O)cc1	-26	1.0	0.07	-22
C[C@H](CO)N1C[C@H](C)[C@@H](CN(C)S(=O)(=O)c2cn(C)cn2)Oc2c(cccc2N(C)C)C1=O	4	-0.6	0.13	-111
C[C@@H]1CN([C@H](C)CO)C(=O)c2cccc(NC(=O)c3ccc(-c4nccs4)cc3)c2O[C@H]1CN(C)C(=O)Nc1cccc2ccccc12	3	-0.8	0.037	-15
CC1=C(C(=O)OCCc2ccccc2)C(c2ccc(N(C)C)cc2)NC(=S)N1 (stereo not drawn)	-11	-4.7	-0.079	/
Cc1noc(C)c1S(=O)(=O)Nc1cccc2c1O[C@@H](CN(C)C(=O)Nc1ccc3c(c1)OCO3)[C@@H](C)CN([C@@H](C)CO)C2=O	0	-0.2	-0.11	-24
C[C@H]1CN([C@@H](C)CO)C(=O)c2cc(NS(C)(=O)=O)ccc2O[C@H]1CN(C)CC1CC1	-4	1.0	0.029	?
COc1ccc(NC(=O)Nc2cccc3c2O[C@H](CN(C)C(=O)Nc2ccc4c(c2)OCO4)[C@@H](C)CN([C@H](C)CO)C3=O)cc1	-38	-0.3	0.043	-29
C[C@H]1CN([C@@H](C)CO)C(=O)c2cccc(NC(=O)Nc3cccc4ccccc34)c2O[C@@H]1CN(C)S(=O)(=O)c1ccc(Cl)cc1	6	-1.0	0.24	15
O=C1C(=O)N(CCCn2ccnc2)C(c2ccccc2)C1C(=O)c1cccs1 (stereo not drawn)	-8	1.7	/	/
CC[n+]1c(C)csc1Nc1ccc(N2CC(C)OC(C)C2)cc1 (stereo not drawn)	8	1.9	0.39	/
Cc1nn(Cc2cccc(C(=O)NC(=O)Nc3ccc(Cl)cc3)c2)c(C)c1Br	1	2.5	-0.42	14
O=C(Nc1ccc(Br)c2cccnc12)c1ccc(Cn2cc(Cl)cn2)o1	-11	-0.7	/	/

Five compounds from above, arranged by molar mass, lowest first:
SMILES	MITF inh	PD-1 reversal	YB-1 expression	Shh pathway inh
COC(=O)c1c(C)nc(C)c2c(=O)oc3ccccc3c12	-27	-0.2	0.05	-37
c1ccc(-c2nnc(OCc3cccnc3)c3ccccc23)cc1	-4	-5.0	/	/
CC[n+]1c(C)csc1Nc1ccc(N2CC(C)OC(C)C2)cc1 (stereo not drawn)	8	1.9	0.39	/
C[C@@H]1CCCCO[C@@H](CN(C)S(C)(=O)=O)[C@@H](C)CN([C@H](C)CO)C(=O)c2cc(NS(C)(=O)=O)ccc2O1	-1	/	-0.36	-19
C[C@@H]1CN([C@H](C)CO)C(=O)c2cccc(NC(=O)c3ccc(-c4nccs4)cc3)c2O[C@H]1CN(C)Cc1ccc(Cl)c(Cl)c1	48	-4.1	-0.34	26

The list continues.
SMILES	MITF inh	PD-1 reversal	YB-1 expression	Shh pathway inh
COc1cc(-c2cc(OC)c(C)cc2OC)c(OC)cc1C	-1	0.1	-0.019	-6
Cc1noc(C)c1NC(=O)Nc1ccc2c(c1)CC(=O)N([C@H](C)CO)C[C@@H](C)[C@H](CN(C)Cc1ccc(Oc3ccccc3)cc1)O2	6	/	-0.12	18
C[C@H]1CN([C@@H](C)CO)C(=O)Cc2cc(NC(=O)C3CC3)ccc2O[C@@H]1CN(C)C(=O)Nc1cccc2ccccc12	-7	/	0.38	/
Cc1noc(C)c1S(=O)(=O)Nc1cccc2c1O[C@@H](CN(C)Cc1ccc(C(=O)O)cc1)[C@@H](C)CN([C@H](C)CO)C2=O	4	1.4	-0.14	-4
N/C(CSc1nc2ccccc2s1)=N\O	-3	-0.2	0.033	-1
O=C(O)c1cc(F)cc(C(F)(F)F)c1	-14	2.7	-18	-1
O=S(=O)(c1ccccc1)c1nc(-c2ccccc2F)oc1NCc1cccnc1	-16	-0.5	/	/
C[C@@H]1CN([C@@H](C)CO)C(=O)c2cc(NS(=O)(=O)c3ccc(F)cc3)ccc2O[C@H]1CN(C)C(=O)Nc1cccc2ccccc12	7	-0.9	-0.046	/
CCOC(=O)c1cc(NC(=O)CSc2nc3ccccc3s2)ccc1Cl	18	0.8	/	/
CNC[C@@H]1Oc2c(NC(=O)NC(C)C)cccc2C(=O)N([C@H](C)CO)C[C@@H]1C	-3	1.2	0.092	5
Cc1ccc(-c2nnc(SCC(=O)Nc3ccc(Br)c(Cl)c3)n2C)cc1	15	0.3	/	/
Cc1nc(NCC2CCCO2)c2c(C)c(C)sc2n1 (stereo not drawn)	49	0.7	/	/
C[C@@H]1CN([C@H](C)CO)C(=O)Cc2cc(NC(=O)CCCCCC(=O)Nc3ccccc3N)ccc2O[C@@H]1CN(C)S(=O)(=O)c1cccs1	-14	0.0	-0.15	/
Oc1ccc(-c2nc(-c3ccc(F)cc3)c(-c3ccncc3)[nH]2)cc1	-28	/	0.026	74*
CSc1ccccc1-n1nnnc1SCC(=O)Nc1ccccc1Cl	25	-0.3	/	/
CCOc1ccccc1NC(=O)CSc1n[nH]c(N)n1	-7	3.4	/	/
Cc1cc(C(=O)Nc2cccc3c2O[C@H](CN(C)Cc2ccncc2)[C@@H](C)CN([C@H](C)CO)C3=O)n(C)n1	3	2.4	0.095	-4
Cc1ccc(C)c(N(CC(=O)Nc2cccc([N+](=O)[O-])c2C)S(C)(=O)=O)c1	0	-1.4	/	/
CC(C)(C)c1ccc(Cn2c(=N)n(CC(=O)O)c3ccccc32)cc1	-10	0.6	-0.14	-6
C[C@H](CO)N1C[C@H](C)[C@H](CN(C)S(C)(=O)=O)Oc2ccc(NC(=O)NC3CCCCC3)cc2C1=O	-9	1.5	0.19	/
C[C@H]1CN([C@@H](C)CO)C(=O)c2cccc(NC(=O)c3ccc(-c4nccs4)cc3)c2O[C@@H]1CN(C)Cc1ccc(C(F)(F)F)cc1	63	/	0.45	48
CNC[C@@H]1Oc2c(NS(=O)(=O)c3ccc(Cl)cc3)cccc2C(=O)N([C@H](C)CO)C[C@H]1C	-1	/	-0.19	-56
C[C@@H]1CCCCO[C@H](CN(C)S(=O)(=O)c2ccc(Cl)cc2)[C@@H](C)CN([C@H](C)CO)C(=O)c2cc(NC(=O)Nc3ccc(F)cc3)ccc2O1	16	/	0.28	10
Cc1noc(C)c1S(=O)(=O)Nc1ccc2c(c1)C(=O)N([C@H](C)CO)C[C@@H](C)[C@H](CN(C)C(=O)Nc1ccccc1)O2	9	0.7	-0.31	/
C=CCN1C(=O)/C(=C/c2cn(C(C)CC)c3ccccc23)C(=O)NC1=S (stereo not drawn)	5	-2.9	-0.29	/
C[C@H]1CN([C@@H](C)CO)C(=O)c2cc(NC(=O)Nc3ccc(F)cc3)ccc2O[C@@H]1CN(C)C(=O)NC1CCCCC1	-4	-0.2	-0.25	-13
COc1ccc(NC(=O)Nc2cccc3c2O[C@@H](CN(C)C(=O)Nc2ccc(C(F)(F)F)cc2)[C@H](C)CN([C@@H](C)CO)C3=O)cc1	-5	0.2	0.22	7
O=C(CSc1ncn(-c2ccccc2)n1)Nc1ccc2c(c1)OCCO2	4	0.5	/	/
C[C@H]1CN([C@@H](C)CO)C(=O)Cc2cc(NC(=O)NC3CCCCC3)ccc2O[C@H]1CN(C)C(=O)NC1CCCCC1	-8	/	0.11	-18
CCC1NC(=O)c2cc(S(N)(=O)=O)c(Cl)cc2N1 (stereo not drawn)	2	/	-0.099	-31
CC(Sc1nc(N)cc(=O)[nH]1)C(=O)Nc1cccc(Cl)c1 (stereo not drawn)	10	-0.3	/	/
C[C@H](CO)N1C[C@H](C)[C@@H](CN(C)C(=O)Nc2cccc3ccccc23)Oc2c(NS(C)(=O)=O)cccc2C1=O	3	0.4	-0.47	22
O=C1CSC(c2ccccc2)N1Cc1ccccc1 (stereo not drawn)	6	-0.3	0.21	/
COc1ccc(S(=O)(=O)N(C)C[C@H]2Oc3ccc(NS(=O)(=O)c4ccccc4)cc3C(=O)N([C@H](C)CO)C[C@@H]2C)cc1	3	-0.3	-0.2	-34
COC(=O)c1sc(SC)c(-c2ccon2)c1C	-12	-0.9	0.27	19
C[C@@H]1CN([C@@H](C)CO)C(=O)c2cccc(NC(=O)c3cnccn3)c2O[C@H]1CN(C)C(=O)Nc1cccc2ccccc12	-8	/	0.12	-10
CCn1c(SCC(=O)Nc2ccccc2OC)nnc1-c1ccc(N)cc1	7	1.5	/	/
COC(=O)c1ccccc1NC(=O)CCSc1ccc(C)cc1	-53	2.0	/	/
Cc1ccc(-n2c(SCC(=O)Nc3cccc(F)c3)nc3ccccc3c2=O)cc1	20	-0.9	/	/
C[C@@H]1CN([C@@H](C)CO)C(=O)c2cccc(NS(=O)(=O)c3ccc(F)cc3)c2O[C@@H]1CN(C)Cc1ccncc1	-22	-0.7	-0.13	-10
CC(C)NC(=O)Nc1cccc2c1O[C@H](CN(C)Cc1ccc(Oc3ccccc3)cc1)[C@H](C)CN([C@@H](C)CO)C2=O	-12	0.5	0.48	-3
COc1ccc(NC(=O)Nc2cccc3c2O[C@H](CN(C)C(=O)Nc2ccc(C(F)(F)F)cc2)[C@H](C)CN([C@H](C)CO)C3=O)cc1	0	-1.2	-0.47	-8

An excerpt; count on the stated rates, not on these rows.
